High-throughput results from PubChem BioAssay.
CHT inh: inhibitors of human choline transporter CHT; CHT-expressing cells, membrane potential dye, choline response; stronger effect = lower value; AID 488975, 2010; High affinity choline transporter 1 (Homo sapiens), Q9GZV3; B-score at 10 µM; 310,000 tested, 0.86% active;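 active = B-score over 3 SD under the library average, and starting fluorescence ratio not unusually high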;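 note: choline stimulus applied at its EC90 after an EC20 pre-addition; B-score computed on integrated fluorescence ratio after choline addition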
Target sequence (Q9GZV3 whole entry, looked up): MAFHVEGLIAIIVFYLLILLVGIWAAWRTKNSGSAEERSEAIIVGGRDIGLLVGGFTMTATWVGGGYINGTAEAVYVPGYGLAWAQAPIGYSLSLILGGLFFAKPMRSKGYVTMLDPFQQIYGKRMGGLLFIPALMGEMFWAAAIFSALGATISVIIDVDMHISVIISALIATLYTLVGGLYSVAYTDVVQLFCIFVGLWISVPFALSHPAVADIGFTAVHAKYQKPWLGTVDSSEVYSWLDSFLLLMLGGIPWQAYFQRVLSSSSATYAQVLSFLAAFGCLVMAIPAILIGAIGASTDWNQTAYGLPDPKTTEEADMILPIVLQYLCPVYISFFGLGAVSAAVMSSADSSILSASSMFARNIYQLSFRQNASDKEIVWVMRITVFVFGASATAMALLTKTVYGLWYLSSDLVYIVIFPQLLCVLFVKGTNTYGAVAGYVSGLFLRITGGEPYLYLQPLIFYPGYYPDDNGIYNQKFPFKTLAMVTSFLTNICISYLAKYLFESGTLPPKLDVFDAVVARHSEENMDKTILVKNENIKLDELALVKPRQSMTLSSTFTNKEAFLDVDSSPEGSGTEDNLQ
Calls only; i = inactive.

SMILES	CHT inh
Cc1ccc(OCc2nc(-c3ccccn3)n[nH]2)cc1	i
O=C(O)c1cc(-n2cccc2)ccc1N1CCOCC1	i
CCSc1nnc(-c2ccccc2NC(=O)CC)c(=O)[nH]1	i
COc1ccc(Cl)cc1NC(=O)CN1CCC(NC(=O)C2CC2)CC1	i
O=C(O)CC(C(=O)Nc1ccc(F)cc1)C1CCCO1 (centres undefined)	i
CCOC(=O)C(C)N1C(=O)S/C(=C/c2cc(C)n(-c3ccncc3)c2C)C1=O (centres undefined)	i
CNC(=S)NNC(=O)c1sc2cc(C(F)(F)F)cnc2c1-c1ccccn1	i
Cc1cc(C(=O)O)c(C)n1Cc1ccncc1	i
CCN(CC)Cc1oc(CO)cc(=O)c1O	i
Cc1ccc(CNC(=O)CCSCc2cccc(F)c2)cc1	i
CC(OC(=O)Cn1cnc2c1c(=O)n(C)c(=O)n2C)C(=O)N(C)c1ccccc1 (centres undefined)	i
CCCc1cc(C(=O)Nc2cccnc2)no1	i
Cn1c(=O)[nH]c(=O)c2cc(C(=O)c3cc(F)ccc3O)cnc21	i
CN1CCN(c2nc(NCCOC34CC5CC(CC(C5)C3)C4)nc(OCC(F)(F)F)n2)CC1	i
CN(C)/C=N/c1sc2c(c1C(N)=O)CCCC2	i
COc1ccc(C/C(N)=N/OC(=O)Cc2ccccc2)cc1	i
Cc1cc(C(=O)N/N=C/c2cccc(Cl)c2Cl)no1	i
CCNc1cc(N2CCCC2)ccc1[N+](=O)[O-]	i
CC(C)(C)c1ccc(C(=O)Nc2ccc(S(=O)(=O)Nc3cnc4ccccc4n3)cc2)cc1	i
S=C(Nc1ccccc1)c1nc2ccccc2s1	i

Given with the structure last: part of the list above.
| CHT inh | canonical_smiles |
| --- | --- |
| i | CC(C)(C)c1ccc(C(=O)Nc2ccc(S(=O)(=O)Nc3cnc4ccccc4n3)cc2)cc1 |
| i | S=C(Nc1ccccc1)c1nc2ccccc2s1 |

Additional compounds.
SMILES	CHT inh
NC(=O)CC(NC(=O)Cc1cccc2ccccc12)c1ccc(NCc2ccc(F)cc2)c([N+](=O)[O-])c1 (centres undefined)	i
COc1ccc(/C=C/C(=O)N2CCN(S(=O)(=O)c3ccccc3)CC2)cc1OC	i
O=C(c1ccccc1)N1CCC(=O)N(C(CO)Cc2ccccc2)CC1 (centres undefined)	i
NC(=O)COC(=O)c1ccc(Oc2ccccc2)cc1	i
CCOC(=O)CNC(=O)Cn1cnc2c(nnn2-c2ccc(F)cc2)c1=O	i
O=C(c1ccccc1)N(Cc1cccs1)C1CCS(=O)(=O)C1 (centres undefined)	i
CCOc1ccc2nc(COC(=O)c3cccs3)c(C(C)=O)[n+]([O-])c2c1	i
Cc1ccc(Nc2nc(N)nc(CN3CCN(c4ccccc4F)CC3)n2)cc1	i
COc1ccc(NS(=O)(=O)c2cc3c4c(c2)C(C)C(=O)N4CCC3)cc1 (centres undefined)	i
NS(=O)(=O)c1ccc(NC(=S)NCc2ccccc2Cl)cc1	i
COc1ccc(OCCCC(=O)Nc2nnc(C3CCCO3)s2)cc1 (centres undefined)	i
CCc1ccc2c(c1)C(=O)C(=O)N2CCS(=O)(=O)c1ccccc1	i
O=C(c1ccc2c(c1)OCO2)N1CCC2(CC1)Oc1ccc(F)cc1C(=O)C21CC(c2ccc(Cl)cc2)=NO1 (centres undefined)	i
CS(=O)(=O)N(CC(=O)Nc1ccc2c(c1)OCO2)c1ccc2c(c1)OCO2	i
COc1ccccc1-n1c(=O)[nH]c2c(C(N)=O)nc(C3CCCCC3)nc21	i
NS(=O)(=O)c1ccc(NC(=O)COc2cccc3ccccc23)cc1	i
COC(CNC(=O)c1ccc2c(=O)n(Cc3ccc(Cl)cc3)c(=S)[nH]c2c1)OC	i
COc1ccc(C(=O)/C=C/c2cccs2)c(OC(=O)c2cccc([N+](=O)[O-])c2)c1	i
Cc1ccc(Oc2nnc(-c3cccs3)c3ccccc23)cc1	i
COc1cc(C(=O)NCC2CCCO2)cc(OC)c1OC (centres undefined)	i
CN(CC(=O)NCc1ccccn1)S(=O)(=O)c1cc(Cl)ccc1Cl	i
NC(=O)[C@H]1CC2(CC(c3cccc(NC(=O)CC(c4ccccc4)c4ccccc4)c3)=NO2)CN1C(=O)c1ccccc1C(=O)c1ccccc1 (some centres undefined)	i
O=C(NCC(c1ccco1)N1CCc2ccccc21)C(=O)Nc1ccccc1F (centres undefined)	i
CN(C(=O)CCc1nc(-c2ccccc2F)no1)c1ccccc1	i
CCc1nnc(NC(=O)COc2ccc3ccccc3c2)s1	i
CCOc1c(Br)cc(C(N)=O)cc1OC	i
O=C(CCNC(=O)C1CCN(S(=O)(=O)c2ccccc2)CC1)NCc1ccc(Cl)c(Cl)c1	i
O=C(c1cccs1)N1CCN=C1SCc1ccccc1F	i
CCN(CC(=O)Nc1c(F)cccc1F)C(=O)c1ccc2c(c1)S(=O)(=O)N=C1CCCCCN12	i
O=C(Nc1ccccc1N(C(=O)c1ccco1)S(=O)(=O)c1cccs1)c1ccco1	i
COc1ccc(CCN2C(=O)NC(NC(=O)C(C)(C)C)(C(F)(F)F)C2=O)cc1OC (centres undefined)	i
COc1ccc(NC(=O)CSc2nc(O)c(Cc3ccccc3)c(=O)[nH]2)cc1	i
CCOC(=O)C1CCCN(c2cc(NCCCO)c([N+](=O)[O-])c3nonc23)C1 (centres undefined)	i
Cc1c(NC(=O)c2ccc(CC(C)C)o2)c(=O)n(-c2ccccc2)n1C	i
O=c1[nH]c(=S)[nH]nc1Cc1ccccc1	i
CNC(=O)COc1ccc(S(=O)(=O)Nc2ccc(OC)cc2)cc1	i
CC(C)Oc1cccc(C(=O)C2CCCN(Cc3cccn3-c3cccnc3)C2)c1 (centres undefined)	i
Cc1ccccc1N1Cc2ccccc2C1	i
COc1ccc(NC(=O)CN(C)C(=O)CCCc2nc3ccccc3s2)cc1	i
CC1Cc2ccccc2N1C1=CC(=O)CC(C)(C)C1 (centres undefined)	i
COc1cccc(-n2cnc3cccc(N)c32)c1	i
CC(OC(=O)Cc1ccc(Br)cc1)C(=O)NC1CCCCC1C (centres undefined)	i
COc1ccc(-n2nc(C(=O)NCC(=O)N3CCCCCC3)c3ccccc3c2=O)cc1OC	i
COc1ccc(CC(=O)OCC(=O)NC(=O)NC2CCCCC2)cc1	i
CC(C)c1onc(C(=O)NCc2ccc(Cl)cc2)c1[N+](=O)[O-]	i
FC(F)(F)c1ccccc1-c1nc(-c2ccncc2)no1	i
C=CCn1c(SCC(=O)N2CCOCC2)nnc1C(C)NC(=O)c1ccccc1 (centres undefined)	i
CN(C(=O)Cn1nnc2ccccc2c1=O)C1CCCCC1	i
CCN1CCN(C(=O)/C=C/c2cccc(Cl)c2)CC1	i
CC(=O)c1cc(CN2CCC(C(=O)Nc3ccc(-n4nc(C)cc4C)cc3)CC2)cs1	i

The results go on:
SMILES	CHT inh
CCCC1CCc2c(sc(N)c2C(N)=O)C1 (centres undefined)	i
O=C(NC(=S)N1CCOCC1)c1ccccc1Cl	i
COc1ccc(CN=C2NN=C(c3ccccc3)CS2)cc1	i
COc1ccc(CCC(C)N2CCC(CO)(Cc3ccccc3)CC2)cc1 (centres undefined)	i
COc1cccc(C(=O)Nc2ccc(S(=O)(=O)Nc3nccc(C)n3)cc2)c1	i
Cc1cccc(-n2ncc3c(Nc4c(C)n(C)n(-c5ccccc5)c4=O)ncnc32)c1	i
Cc1ccc(N(CCC#N)C(=O)COC(=O)c2ccccn2)cc1	i
Cc1cccc(C(=O)O/N=C(\N)c2ccc(Br)cc2)c1	i
CCOC(=O)C1CCN(C(=O)C2CCN(S(=O)(=O)N3CCC4(CC3)OCCO4)CC2)CC1	i
NS(=O)(=O)c1ccc(NC(=O)CSc2nnc(-c3cnccn3)n2-c2ccccc2)cc1	i

In a second layout: entries from further up.
SMILES | CHT inh
COc1ccc(NC(=O)CN(C)C(=O)CCCc2nc3ccccc3s2)cc1 | i
CC1Cc2ccccc2N1C1=CC(=O)CC(C)(C)C1 (centres undefined) | i
COc1cccc(-n2cnc3cccc(N)c32)c1 | i
CC(OC(=O)Cc1ccc(Br)cc1)C(=O)NC1CCCCC1C (centres undefined) | i
COc1ccc(-n2nc(C(=O)NCC(=O)N3CCCCCC3)c3ccccc3c2=O)cc1OC | i
COc1ccc(CC(=O)OCC(=O)NC(=O)NC2CCCCC2)cc1 | i
CC(C)c1onc(C(=O)NCc2ccc(Cl)cc2)c1[N+](=O)[O-] | i
FC(F)(F)c1ccccc1-c1nc(-c2ccncc2)no1 | i
C=CCn1c(SCC(=O)N2CCOCC2)nnc1C(C)NC(=O)c1ccccc1 (centres undefined) | i
CN(C(=O)Cn1nnc2ccccc2c1=O)C1CCCCC1 | i
CCN1CCN(C(=O)/C=C/c2cccc(Cl)c2)CC1 | i
CC(=O)c1cc(CN2CCC(C(=O)Nc3ccc(-n4nc(C)cc4C)cc3)CC2)cs1 | i
CCCC1CCc2c(sc(N)c2C(N)=O)C1 (centres undefined) | i
O=C(NC(=S)N1CCOCC1)c1ccccc1Cl | i
COc1ccc(CN=C2NN=C(c3ccccc3)CS2)cc1 | i
COc1ccc(CCC(C)N2CCC(CO)(Cc3ccccc3)CC2)cc1 (centres undefined) | i
COc1cccc(C(=O)Nc2ccc(S(=O)(=O)Nc3nccc(C)n3)cc2)c1 | i
Cc1cccc(-n2ncc3c(Nc4c(C)n(C)n(-c5ccccc5)c4=O)ncnc32)c1 | i
Cc1ccc(N(CCC#N)C(=O)COC(=O)c2ccccn2)cc1 | i

The results go on:
SMILES	CHT inh
CN(CC(=O)OCC(=O)c1c(N)n(C)c(=O)n(C)c1=O)S(=O)(=O)c1ccc(Cl)cc1	i
Cc1ccc(C2C(C#N)=C(N)Oc3c2c(=O)n(C)c(=O)n3C)cc1 (centres undefined)	i
O=C(CCn1c(=O)[nH]c2ccccc2c1=O)N1CC=C(c2ccccc2)CC1	i
CCn1c(SCC(=O)Nc2nc(C)cs2)nnc1C(C)NC(=O)c1ccccc1 (centres undefined)	i
Cc1ccc(NC(=O)COC(=O)c2cc(Cl)ccc2[N+](=O)[O-])c(C)c1	i
CCNC(=O)CSc1ncnc2sccc12	i
Cc1c(Nc2c3ccccc3nc3ccccc23)c(=O)n(-c2ccccc2)n1C	i
COc1ccccc1C(C)NC(=O)c1ccc(C)o1 (centres undefined)	i
Cn1c(SCc2ccc(F)cc2)nnc1-c1cccs1	i
CCc1nnc(NC(=O)c2ccc(NS(=O)(=O)c3ccccc3)cc2)s1	i
COc1cc(Br)c(C(C)NC(=O)c2cccc(Br)c2)cc1OC (centres undefined)	i
COc1ccc(/C=N\NC(=O)c2cccc(F)c2)cc1COc1ccccc1	i
O=C(CC1NCCN(Cc2ccccc2)C1=O)Nc1ccccc1 (centres undefined)	i
O=S(=O)(NCC(c1ccc2c(c1)OCO2)N1CCOCC1)c1ccc(Cl)cc1 (centres undefined)	i
COc1ccc(CC(=O)Nc2ccc3c(c2)CCC3)cc1S(=O)(=O)N1CCOCC1	i
Cc1cc(C)c(C)c(S(=O)(=O)N2CCC(C(=O)OCC(=O)N3c4ccccc4NC(=O)C3(C)C)CC2)c1C	i
O=C(OCCN1CCOCC1)c1ccc2c(c1)OCCO2	i
COc1ccc(OC)c(CN2CCC(CO)(CCOc3ccccc3)CC2)c1	i
O=C(NCc1ccccc1F)c1cccc(S(=O)(=O)NCc2ccccc2)c1	i
CCCCON1C(=O)c2cccc3cccc(c23)C1=O	i
O=C(NCCO)C(=O)c1c(-c2ccc(Cl)cc2)cc2ccccn12	i
CC1=CC(C)(C)C(C(=O)O)C(C(=O)O)C1 (centres undefined)	i
COc1cc(-c2nnc(SCC(=O)NC3CCS(=O)(=O)C3)o2)cc(OC)c1OC (centres undefined)	i
CCOc1ccc(Nc2nc(NCc3ccco3)nc(N)c2[N+](=O)[O-])cc1	i
O=[N+]([O-])c1ccc(NC(=S)N2CCN(c3ccccn3)CC2)cc1	i
CCCC(=O)Nc1cc(OC)c(C(=O)OC)cc1Cl	i
Cc1ccc(C(=O)NNC(=O)c2ccc(SCC3CCCO3)c([N+](=O)[O-])c2)cc1 (centres undefined)	i
CCC1(C)NC(C(=O)O)Cc2c1[nH]c1ccccc21 (centres undefined)	i
CN(C(=O)COC(=O)c1ccc2c(=O)n3c(nc2c1)CCC3)C1CCS(=O)(=O)C1 (centres undefined)	i
COc1ccccc1N1CCN(C(=O)C(=O)N/N=C/c2cccc(O)c2)CC1	i
COc1ccc(N/C=C(\C2OC(=O)c3ccccc32)[N+](=O)[O-])cc1 (centres undefined)	i
Cc1cccc(Oc2cc(N)cc([N+](=O)[O-])c2)c1	i
COCCNC(=S)N(CCCO)Cc1cc2cc3c(cc2[nH]c1=O)OCCO3	i
C/C(=N\NC(=O)C(O)c1ccccc1)c1cccnc1 (centres undefined)	i
CCCn1c(SCC(=O)N2CCCCC2)nnc1-c1ccccn1	i
CSCC(=O)N1CCCC(N2CCN(c3cccc(C(F)(F)F)c3)CC2)C1 (centres undefined)	i
COC(=O)[C@H]1C[C@@H]1[C@H](NS(=O)(=O)c1ccccc1)c1ccccc1	i
COC(=O)N/N=C\c1ccc(-c2cc(Cl)c(Cl)cc2Cl)o1	i
O=C(Nc1cc2c3c(c1)CC(=O)N3CCC2)c1cccc(F)c1	i
COC(=O)c1ccccc1NC(=O)COC(=O)CSCC(=O)N1CCOCC1	i
COC(=O)c1cc(Br)c(=O)n(Cc2ccc(OC)c(OC)c2)c1	i
C=CCn1c(SCC(=O)Nc2ncc(Cc3ccc(C)c(Cl)c3)s2)nnc1-c1ccncc1	i
S=c1[nH]nc(-c2cc(-c3ccco3)[nH]n2)n1-c1cccc2ccccc12	i
O=C(c1ccc(Cl)nc1)N1CCc2ccccc2C1	i
COC(=O)c1ccc(NC(=O)C(=O)N2CCN(C(=S)Nc3cccc(C)c3C)CC2)cc1	i
CC(=O)c1c(NC(=O)c2ccccc2)[nH]c(-c2ccccc2)nc1=S	i
Cc1ccc(-c2nc3ccccc3c(=O)n2NC(=O)c2cccs2)cc1	i
CC(c1ccco1)N(C(=O)Nc1ccc(Cl)cc1)c1ccccn1 (centres undefined)	i
NS(=O)(=O)c1ccc(N=Nc2c(=O)[nH]n3c(=O)c4c([nH]c23)CCCC4)cc1	i
CC(C)(C)n1nnnc1C(c1cccs1)N1CCN(c2ccccc2)CC1 (centres undefined)	i
Cc1ccc(-c2nc3ccc(Cl)cc3c(=O)n2O)cc1	i
C=CCN1C(=O)NC(c2ccc(OC)cc2)(C(F)(F)F)S/C1=C(\C#N)c1nnc(N2CCOCC2)n1-c1ccccc1 (centres undefined)	i

An excerpt, and most or all hits are left out here.
